Assay outcomes from PubChem.
D2 PAM: human D2 receptor positive allosteric modulation; actives 0.23% (n = 360,000); P14416; potentiation, % (no concentration beside the values); DiscoveRx D2 beta-arrestin cells, luminescence, 90 min; 100% = 57 uM dopamine signal; active = potentiation of 50% or more; inconclusive = 30% to 50%; inactive = 30% or less;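 note: compound concentration not given in the record; tested on top of an EC20 dose of dopamine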
Target sequence (P14416 whole entry, looked up): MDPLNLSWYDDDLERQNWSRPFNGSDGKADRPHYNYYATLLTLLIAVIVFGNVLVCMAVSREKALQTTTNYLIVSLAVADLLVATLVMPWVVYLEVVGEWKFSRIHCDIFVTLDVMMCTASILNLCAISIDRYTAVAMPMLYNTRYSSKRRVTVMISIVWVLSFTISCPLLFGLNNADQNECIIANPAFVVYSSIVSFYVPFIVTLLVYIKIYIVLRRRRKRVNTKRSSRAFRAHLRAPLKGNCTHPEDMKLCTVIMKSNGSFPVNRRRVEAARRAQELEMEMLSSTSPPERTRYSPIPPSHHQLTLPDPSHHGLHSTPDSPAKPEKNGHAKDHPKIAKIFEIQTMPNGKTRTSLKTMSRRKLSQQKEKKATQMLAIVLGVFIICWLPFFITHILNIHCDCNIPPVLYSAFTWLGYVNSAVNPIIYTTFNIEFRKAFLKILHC
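PathHunter beta-arrestin assay in DiscoveRx D2 cells. Compounds were added with an EC20 of dopamine (50 nM final) for 90 min at 37 deg C. Luminescence was read 1 h after detection reagent, with 57 uM dopamine as the EC100 control.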
CtBP-E1A blk: blocks the CtBP interaction with E1A | AlphaScreen GST-E1A/His-CtBP binding, 1536-well; active compounds read low; control for the full effect not named in the record | activity change, % (test concentration not listed) | actives 0.49% (n = 340,000); in the data active means activity change below about -65%; inconclusive means about -30% to -65%; inactive means above about -30%; note: % is set by controls: 0 for no effect and ±100 for the full control effect
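In 5 uL wells, 23 nL compound meets equimolar GST-E1A and His-CtBP (5X stock 125 nM each) for 2 h, 37 °C. Beads (5X, 50 ug/mL) then 1 h, 37 °C, dark.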
PINK1 expr mod: PINK1 expression modulation | AID 624263 | actives 0.2% (n = 410,000) | Potency, µM (titrated, usually from 76.6 µM), inactives show at the top dose activation (PINK1 increase), actives largely listed as activators | PINK1 immunofluorescence, high-content cytometry, 24 h; active = well fitted activation curve with a large enough effect; inconclusive = small, poorly fitted or top-dose-only effect; inactive = flat fitted curve, though single readings scatter; cell line not stated here;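 note: potency is the fitted concentration of half-maximal effect; % of control where 0% means no effect; nearly all actives have a fitted effect of over 65% in size; a mitochondrial uncoupler was the plate control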
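Measures PINK1 amount and localization on or inside mitochondria by immunofluorescence. Stable cells get compounds at 5 concentrations for 24 hours before fixation and staining; CCCP controls included.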
Six1-Eya2 blk: Six1/Eya2 interaction inhibition; activity change, % (test concentration not listed); AlphaScreen GST-Six1/His-Eya2 binding, biochemical; active compounds read low; control for the full effect not named in the record; actives 0.56% (n = 360,000); in the data active = activity change below about -65%; inconclusive = about -30% to -65%; inactive = above about -30%; note: % is set by controls: 0 for no effect and ±100 for the full control effect
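Compounds are tested against tagged Six1 and Eya2 proteins bridged by glutathione donor and nickel acceptor beads; after a one-hour incubation at 37 °C without light, AlphaScreen emission is recorded.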
D2 agonist: activates the human D2 dopamine receptor. P14416. DiscoveRx PathHunter D2 beta-arrestin, luminescence, 90 min; 100% = 57 uM dopamine signal. activation, % (no concentration beside the values). actives 0.084% (n = 360,000). AID 624465; in the data active = activation above about 40%; inconclusive = about 15% to 40%; inactive = below about 15%; note: compound concentration not given in the record; the text of the record calls up to 30% inactive
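Agonist mode: compounds alone added to overnight-plated D2 PathHunter cells for 90 min at 37 C, with 57 uM final dopamine (EC100) defining full response. Beta-arrestin recruitment detected by chemiluminescent reagent, read after 1 h at ambient temperature.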
Sfp inh: Sfp phosphopantetheinyl transferase inhibition | Potency, µM, without a hit: max response, negative = inhibition, most hits filed as inhibitors | actives 3.5% (n = 310,000) | Biochemical Sfp PPTase activity, qHTS | Q9F4F7; active = well fitted inhibition curve with a large enough effect; inconclusive = small, poorly fitted or top-dose-only effect, or another doubt; inactive = no such curve, though single readings can be large or run the other way;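 note: the enzyme is Sfp with the accession as filed and its product quenches rhodamine fluorescence; potency is the fitted concentration of half-maximal effect; 0% = enzyme reaction without inhibitor and -100% = no enzyme wells; top concentration of the series not given in the record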
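After 15 min at room temperature with compound, 15 nM Sfp received 5 uM rhodamine-CoA plus 12.5 uM BHQ-2-ybbR (50 mM Hepes pH 7.6, 10 mM MgCl2). Rate came from the fluorescence difference over 30 min, ex 525/em 598 nm.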
TRPV1 PAM: human TRPV1 potentiation. AID 540277. potentiation, % at 8.33 µM. actives 0.02% (n = 320,000). TRPV1-expressing cells, Fluo-8 calcium influx, capsaicin EC20 potentiation; host cell line not named in the record; control for the full effect not named in the record; active means potentiation above 80%; inconclusive means 30% to 80%; inactive means below 30%; note: 0% is about no effect
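TRPV1-expressing cells were cultured overnight at 35.5C and loaded with Fluo-8 calcium dye for 40 to 90 min at room temperature. After a 10 s baseline, compound was added and calcium influx was read kinetically for 3 min (ex 480/em 520 nm).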
The depositor's hits bear a star; ? = inconclusive; . = no result given; & = joins results of further samples; [ ] = another dose, or the depositor's remark.

| molecule | D2 PAM | CtBP-E1A blk | PINK1 expr mod | Six1-Eya2 blk | D2 agonist | Sfp inh | TRPV1 PAM |
| --- | --- | --- | --- | --- | --- | --- | --- |
| CCN(CC)S(=O)(=O)c1ccc(OC)c(NC(=O)c2cc([N+](=O)[O-])ccc2Cl)c1 | 26 | 0 | 4.2% | 4 | -1.1 | 8% | -3 |
| COc1ccc(NC(=O)CN(C)S(=O)(=O)c2cnc[nH]2)cc1Cl | -15 | 0 | -1.2%&-1.1% | 1 | -8.8 | 17% | -14 |
| COc1ccc2oc(C(=O)NCc3ccco3)c(C)c2c1 | -23 | -7 | 0.8% | -5 | -1.7 | 6% | -31 |
| Cc1ccc(S(=O)(=O)N2CCC(C(=O)Nc3nnc(C)s3)CC2)cc1 | -9 | 4 | -0.9% | 11 | -4.7 | 17% | -6 |
| COc1ccc(CCn2c(O)c(C=Nc3cccc(F)c3)c(=O)[nH]c2=O)cc1OC | -2 | 2 | 5.4% | 0 | 3.7 | -2% | 8 |
| Cc1cccc(NC(=O)C2(C)CC3c4ccccc4C2c2ccccc23)c1 (stereo unspecified) | ? | 5 | 10% | -5 | 3.1 | 35%[activator] | -4 |
| O=[N+]([O-])c1ccc(S(=O)(=O)N2CCN(c3ccc(N4CCOCC4)nn3)CC2)cc1 | -67 | -6 | -1.9% | 5 | 9.9 | . | -25 |
| CCOC(=O)Cc1ccc2sc(-c3ccccc3)nc2c1 | -6 | 50 | 0.5% | 46 | 1.8 | -5% | -17 |
| CCOc1ccccc1-c1cc(C(=O)N/N=C/c2ccc(O)c(OC)c2)c2ccccc2n1 | -14 | -14 | 4.6% | -27 | -2.0 | -4% | 22 |
| C=CCN1C(=O)N(c2ccc(Cl)cc2)C(=O)C1CC(=O)Nc1ccc(F)cc1 (stereo unspecified) | -10 | 9 | -0.8% | 1 | -1.2 | 17% | 5 |
| CC(=O)c1ccc(-n2nnnc2SCC(=O)N2CCc3ccccc3C2)cc1 | 12 | 6 | 0.4% | 1 | 0.8 | -12% | 22 |
| COc1ccc(CCNC(=O)C(=O)NCC2CCCN2S(=O)(=O)c2ccccc2)cc1OC (stereo unspecified) | ? | 6 | -2.4% | -7 | 4.7 | . | -10 |
| O=C(COC(=O)CCCCCN=C1NS(=O)(=O)c2ccccc21)Nc1ccc(Cl)c(Cl)c1 | -9 | -3 | 0.3% | 4 | -1.8 | 4% | 14 |
| CCC(=O)N/N=C/c1ccc(-c2ccc([N+](=O)[O-])cc2)o1 | -1 | -1 | -1.6% | -2 | 7.4 | -7% | -4 |
| O=C(c1cccnc1NCc1ccc(F)cc1)N1CCOCC1 | -5 | 0 | -3.4% | 14 | 2.4 | 12% | 0 |
| CC(C)C[C@@H](CNCC(=O)[C@H](Cc1ccccc1)NC(=O)c1[nH]cnc1C(=O)N[C@@H](C)CN)NC(=O)c1nc[nH]c1C(=O)N[C@@H](C)C(=O)O | -7 | -22 | 0.1% | -23 | -2.9 | . | . |
| CCOc1ccc(S(=O)(=O)N2CCC(C(=O)NC3CC3)CC2)cc1C | -5 | 6 | -1.1% | -1 | -0.6 | 19% | 3 |
| O=S(=O)(c1ccccc1)N1CCN(C(=S)Nc2ccc(Br)cc2)CC1 | -8 | 3 | 4.2% | 3 | -0.2 | -2% | -5 |
| CN(C)c1ccc(/C=C2/SC(=O)N(CCN=C3NS(=O)(=O)c4ccccc43)C2=O)cc1 | -13 | 7 | ? | 4 | -0.7 | -2% | -6 |
| CN(CC(=O)Nc1ccccc1N1CCCC1)S(=O)(=O)c1ccc(F)cc1 | -23 | -4 | 3.3% | 1 | -0.1 | . | -10 |
| COc1cc([N+](=O)[O-])cc(/C=N/NC(=O)CSc2ccccn2)c1O | -3 | -91* | -1.7% | -82* | -6.6 | 14% | -10 |
| CCOc1ccc(NC(=O)CN(C)C(=O)CCCOc2ccc(Cl)c(C)c2)cc1OCC | -9 | ? | 0.1% | ? | 0.0 | 6% | ? |
| CCn1c(COc2cc(C)ccc2C(C)C)nnc1SCC(=O)Nc1nccs1 | -9 | . | 6.6% | -12 | -3.5 | 10% | -4 |
| COc1ccccc1NC(=O)c1ccc(S(=O)(=O)N2CCOCC2)cc1 | -7 | -10 | 0.8% | -1 | -0.7 | 15% | -13 |
| Cc1c(C(=O)OCC(=O)N2CC(=O)Nc3ccccc32)oc2ccccc12 | 3 | 0 | -2.1% | -12 | -4.1 | 18% | 12 |
| OCCN1CCN(CC#CCC(c2ccccc2)c2ccccc2)CC1 | -19 | 8 | -0.3% | -1 | -4.7 | 9% | . |
| COCC1CCCN(Cc2cn(Cc3ccccc3)nc2-c2cc3ccccc3o2)C1 (stereo unspecified) | -25 | -11 | 6.1% | -10 | -6.2 | ? | -4 |
| CC(C)(C)c1ccc(C(=O)NC(=S)N2CCCCCC2)cc1 | -19 | -7 | 5.4% | 2 | -9.2 | 16% | -9 |
| Cc1ccc(C(=O)Nc2cccc3ccccc23)o1 | -7 | 4 | 1.8% | -6 | -4.3 | . | . |
| CCCOc1ccc(-c2c(C(=O)N/N=C/c3ccncc3)nnn2-c2nonc2N)cc1 | 3 | 2 | 8.6% | -2 | 2.0 | 11% | -8 |
| O=S(=O)(c1cccc2nsnc12)N1CCN(C/C=C/c2ccccc2)CC1 | -22 | -13 | -0.3% | -17 | -1.2 | 6% | -3 |
| Cc1noc(C)c1-c1ccc(C(=O)NC2CCCCC2)c2occc12 | -13 | -23 | 8.7% | -25 | -2.5 | . | . |
| CC(C)n1c(SCC(=O)c2ccc3c(c2)OCCO3)nc2c1c(=O)n(C)c(=O)n2C | 7 | 10 | . | 5 | -1.9 | -3% | 10 |
| C(=N\Nc1nc2ccccc2[nH]1)/c1cccc2cccnc12 | -30 | . | 7.6% | -84* | 0.6 | -8% | -6 |
| O=C(O)c1cc(S(=O)(=O)NCc2ccco2)c(Cl)cc1Cl | -16 | 5 | 0.2% | 0 | -3.9 | -17% | -13 |
| COC(=O)C1=C(C)N(Cc2ccccc2)C(=NCCc2ccccn2)N[C@H]1c1cccc(F)c1 | -20 | -15 | 0.5% | -9 | -1.6 | -2%&-6% | -4&-5 |
| CCc1ccc(-c2nc(CN3CCC(C(=O)NCCN(CC)c4ccccc4)CC3)c(C)o2)cc1 | -34 | -11 | -1.4% | -10 | -2.6&-5.2 | -14% | 9 |
| COc1ccc(C)cc1NC(=O)C1CCCN(S(=O)(=O)c2cnc[nH]2)C1 (stereo unspecified) | -7 | 2 | -0.1% | -5 | -3.1 | 2% | -4 |
| Cc1ccc(-c2noc(CCCC(=O)NC3CCCC3)n2)cc1 | -6 | -2 | -0.9% | -5 | -4.8 | 7% | 1 |
| COc1ccc(S(=O)(=O)NCCSC(C)(C)C)cc1 | -1 | 4 | 4.4%[38.3 µM] | 3 | ? | 11% | -4 |
| CCOC(=O)c1cnc2c(-c3ccccc3OC)c(C)nn2c1C | -7 | 10 | 2.8% | 4 | 1.3 | 10% | 2 |
| C#Cc1ccc([C@@H]2C=C(C(=O)NCc3ccccc3)O[C@H](OCCCCO)C2)cc1 | -53 | -7 | 1.2% | -13 | 0.9 | . | . |
| C/C(=N\NC(=O)c1nn(C)cc1Br)c1cccc(NC(=O)C2CCCC2)c1 | -7 | -7 | 2.8% | -10 | -3.5 | -2% | -22 |
| O=C(COC(=O)C1CCN(S(=O)(=O)c2ccc3c(c2)OCCO3)CC1)Nc1cc(C(F)(F)F)ccc1Cl | -10 | 6 | 1.1% | 5 | -3.0 | 8% | 3 |
| CCOC(=O)N1CCN(C(=O)CCCn2c(=S)[nH]c3ccc(Br)cc3c2=O)CC1 | 9 | -4 | ? | -4 | -2.4 | -2% | 0 |
| O=C(Nc1ccc(Br)cc1)c1ccccc1CC[N+](=O)[O-] | -18 | 3 | 2.9% | 1 | -4.6 | 16% | 5 |
| CC1(C(=O)Nc2cnc3ccccc3c2)CCN1Cc1cc2ccccc2o1 (stereo unspecified) | 4 | -2 | -0.7% | -11 | 4.7 | . | . |
| Cc1cnc(C(=O)OCc2ccc(Br)cc2)cn1 | -2 | -3 | -2.7% | 7 | 0.0 | 15% | 15 |
| OCCCNc1nnc(-c2ccccc2)c2ccccc12 | -24 | -16 | 3.5% | 6 | -5.6 | 5% | 8 |
| CCc1ccc(NC(=O)Cn2cnc3c(=O)n(C)c(=O)n(C)c32)cc1 | -23 | -1 | 4.2% | -1 | -2.7 | 11% | 21 |
| COc1ccc(S(=O)(=O)N=Nc2c(O)[nH]c3ccccc23)cc1 | -32 | 3 | 0.6% | 0 | -10 | -13% | 7 |
| O=C(N/N=C/C(Br)=C/c1ccccc1)c1cnccn1 | -11 | ? | 3.3% | -82* | -1.3 | -7% | . |

Structures listed so far that contain an aryl methoxy group, in the order listed:
| molecule | D2 PAM | CtBP-E1A blk | PINK1 expr mod | Six1-Eya2 blk | D2 agonist | Sfp inh | TRPV1 PAM |
| --- | --- | --- | --- | --- | --- | --- | --- |
| CCN(CC)S(=O)(=O)c1ccc(OC)c(NC(=O)c2cc([N+](=O)[O-])ccc2Cl)c1 | 26 | 0 | 4.2% | 4 | -1.1 | 8% | -3 |
| COc1ccc(NC(=O)CN(C)S(=O)(=O)c2cnc[nH]2)cc1Cl | -15 | 0 | -1.2%&-1.1% | 1 | -8.8 | 17% | -14 |
| COc1ccc2oc(C(=O)NCc3ccco3)c(C)c2c1 | -23 | -7 | 0.8% | -5 | -1.7 | 6% | -31 |
| COc1ccc(CCn2c(O)c(C=Nc3cccc(F)c3)c(=O)[nH]c2=O)cc1OC | -2 | 2 | 5.4% | 0 | 3.7 | -2% | 8 |
| CCOc1ccccc1-c1cc(C(=O)N/N=C/c2ccc(O)c(OC)c2)c2ccccc2n1 | -14 | -14 | 4.6% | -27 | -2.0 | -4% | 22 |
| COc1ccc(CCNC(=O)C(=O)NCC2CCCN2S(=O)(=O)c2ccccc2)cc1OC (stereo unspecified) | ? | 6 | -2.4% | -7 | 4.7 | . | -10 |
| COc1cc([N+](=O)[O-])cc(/C=N/NC(=O)CSc2ccccn2)c1O | -3 | -91* | -1.7% | -82* | -6.6 | 14% | -10 |
| COc1ccccc1NC(=O)c1ccc(S(=O)(=O)N2CCOCC2)cc1 | -7 | -10 | 0.8% | -1 | -0.7 | 15% | -13 |
| COc1ccc(C)cc1NC(=O)C1CCCN(S(=O)(=O)c2cnc[nH]2)C1 (stereo unspecified) | -7 | 2 | -0.1% | -5 | -3.1 | 2% | -4 |
| COc1ccc(S(=O)(=O)NCCSC(C)(C)C)cc1 | -1 | 4 | 4.4%[38.3 µM] | 3 | ? | 11% | -4 |
| CCOC(=O)c1cnc2c(-c3ccccc3OC)c(C)nn2c1C | -7 | 10 | 2.8% | 4 | 1.3 | 10% | 2 |
| COc1ccc(S(=O)(=O)N=Nc2c(O)[nH]c3ccccc23)cc1 | -32 | 3 | 0.6% | 0 | -10 | -13% | 7 |
